ClpP mod = qHTS Assay for Activators of ClpP; ATP-dependent Clp protease proteolytic subunit (Bacillus subtilis (strain 168)), P80244; purified B. subtilis ClpP, FRET peptide cleavage, 20 min; Potency, µM (titrated, usually from 57.5 µM), for inactives: at the highest dose activity change, negative = active; 340,000 compounds, 1.9% hits; AID 651965, 2013; active = well fitted falling curve with a large enough effect; inconclusive = small, poorly fitted or top-dose-only effect; inactive = no such curve, though single readings can be large or run the other way; note: potency is the fitted concentration of half-maximal effect; the source files actives as falling curves though it sought activators and does not explain the sign; nearly all actives have a fitted effect of over 65% in size; many hits overshoot -100%
Target sequence (P80244 whole entry, looked up): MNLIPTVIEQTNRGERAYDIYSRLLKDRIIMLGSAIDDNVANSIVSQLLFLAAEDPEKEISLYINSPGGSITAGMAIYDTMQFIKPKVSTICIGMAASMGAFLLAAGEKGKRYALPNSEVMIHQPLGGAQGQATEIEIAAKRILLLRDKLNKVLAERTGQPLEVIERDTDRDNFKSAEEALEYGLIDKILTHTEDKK
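Buffer: 100 mM Tris/HCl pH8, 100 mM KCl, 0.05% low protease BSA, 2.5% glycerol, 0.01% Tween-20. ClpP 10 microg/mL final; 20 min RT; delta FRET normalized to ADEP and DMSO controls.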
gsp ag = qHTS for Agonist of gsp, the Etiologic Mutation Responsible for Fibrous Dysplasia/McCune-Albright Syndrome: qHTS | 340,000 compounds, 0.13% hits | Potency, µM (highest dose often 76.9 µM), inactives show top-dose activation (cAMP increase), hits mostly activators | gsp mutant cells, cAMP HTRF, 30 min; control for the full effect not named in the record; active = well fitted activation curve with a large enough effect; inconclusive = small, poorly fitted or top-dose-only effect, or another doubt; inactive = no such curve, though single readings can be large or run the other way; cell line not stated here;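 note: phosphodiesterase inhibitor Ro 20-1724 added with compounds to block cAMP breakdown; potency is the fitted concentration of half-maximal effect; nearly all actives have a fitted effect of over 60% in size; about a fifth of the inactives were tested at one dose only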
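Cells stably selected in G418 were plated at 2000/well, grown 16-24 hr, then given compounds in DMSO with the PDE inhibitor […] (300 uM solution added) for 30 min at 37C; cAMP was read by HTRF.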
gsp antag = qHTS for Antagonists of gsp, the Etiologic Mutation Responsible for Fibrous Dysplasia/McCune-Albright Syndrome: qHTS; gsp-mutant cells, cAMP HTRF, 30 min; control for the full effect not named in the record; Potency, µM (titrated, usually from 76.9 µM), inactives show at the top dose activity change, negative = inhibition, actives largely listed as inhibitors; 340,000 compounds, 0.4% hits; AID 624288, 2012; active = falling curve of any shape with a large fitted effect; inconclusive = falling curve, mostly with a smaller effect; inactive = flat or rising curve; cell line not stated here;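 note: intracellular cAMP measured with PDE inhibitor Ro 20-1724 present during compound exposure; potency is the fitted concentration of half-maximal effect; % is set by controls: 0 for no effect and ±100 for the full control effect; nearly all actives have a fitted effect of over 65% in size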
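HTRF cAMP measurement after 30 min RT detection following 30 min, 37C compound treatment alongside […] (added as 300 uM solution) in G418-selected cells seeded at 2000/well and grown 16–24 h.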
TRPML1 agonist = qHTS for Agonists of the Human Mucolipin Transient Receptor Potential 1 (TRPML1); activation, % (concentration not given with the values); TRPML1-expressing cells, Ca2+ dye fluorescence, FDSS; host cell line not named in the record; reference of the full effect not given here; Mucolipin-1 (Homo sapiens), Q9GZU1; 410,000 compounds, 0.12% hits; in the data active = activation above about 50%; inconclusive = about 30% to 50%; inactive = below about 30%; note: 0% is about no effect; the text of the record puts the active cut at 80%
Target sequence (Q9GZU1 whole entry, looked up): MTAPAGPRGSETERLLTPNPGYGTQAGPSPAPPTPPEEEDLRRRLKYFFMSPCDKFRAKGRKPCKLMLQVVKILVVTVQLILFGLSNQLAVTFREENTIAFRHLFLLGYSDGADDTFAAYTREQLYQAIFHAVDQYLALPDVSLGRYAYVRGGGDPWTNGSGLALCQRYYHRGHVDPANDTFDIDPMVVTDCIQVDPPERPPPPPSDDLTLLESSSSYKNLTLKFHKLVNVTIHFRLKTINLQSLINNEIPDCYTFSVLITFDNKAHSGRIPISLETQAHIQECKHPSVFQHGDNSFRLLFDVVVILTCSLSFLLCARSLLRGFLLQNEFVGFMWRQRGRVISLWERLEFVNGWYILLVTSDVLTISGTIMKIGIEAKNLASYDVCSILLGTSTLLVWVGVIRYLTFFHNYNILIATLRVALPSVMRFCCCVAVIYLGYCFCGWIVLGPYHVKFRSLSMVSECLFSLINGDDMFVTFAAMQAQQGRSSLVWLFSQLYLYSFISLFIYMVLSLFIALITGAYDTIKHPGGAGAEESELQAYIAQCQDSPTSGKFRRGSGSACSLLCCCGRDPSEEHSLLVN
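Tetracycline-induced TRPML1-DL cells are seeded and incubated overnight before loading with a no-wash Ca2+ dye and quencher. Agonist activity is taken from the 110 s fluorescence read following compound pin-transfer on an FDSS, before EC80 54-4 challenge.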
TRPML1 inh = qHTS for Inhibitors of the Human Mucolipin Transient Receptor Potential 1 (TRPML1); TRPML1-inducible cells, Ca2+ dye fluorescence, FDSS; stronger effect = lower value; inhibition of EC80 agonist-evoked calcium signal; activity change, negative = inhibition, % (test concentration not listed); 390,000 compounds, 0.02% hits; AID 624415, 2012; in the data active means activity change below about -50%; inconclusive means about -30% to -50%; inactive means above about -30%;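 note: stimulus is agonist 54-4 at its EC80 concentration; % is set by controls: 0 for no effect and ±100 for the full control effect; compound concentration not given in the record; the text of the record puts the active cut at -80%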
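Calcium fluorescence in TRPML1-DL cells induced overnight with Tet: a 110 s read after compound pin addition, then a 110 s antagonist read after challenge with 54-4 at 4 uM final (EC80).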
Menin-MLL FL inh = qHTS Assay for Inhibitors Targeting the Menin-MLL Interaction in MLL Related Leukemias: Competition With Fluorescein Labeled MLL-derived Peptide; AID 1766, 2009; FP activity change, % at 61.4 µM; 290,000 tested, under 10 active; Fluorescence polarization, fluorescein-MLL peptide displacement from menin; inconclusive = falling polarisation curve, or a change in total fluorescence; inactive = total fluorescence flat and polarisation flat or rising; no compound was filed as active; the % refers to the polarisation; negative = inhibition;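 note: % of control where 0% means no effect; inhibitors lower the polarisation; unlabelled MLL peptide was the positive control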
Numbers without * were called inactive; ? = inconclusive; . = not tested or not shown; & = joins results of further samples; [ ] = another dose, or the depositor's remark.

Order of results: ClpP mod | gsp ag | gsp antag | TRPML1 agonist | TRPML1 inh | Menin-MLL FL inh
Cc1cccc(C(=O)NNC(=O)c2ccco2)c1
→ 0.6% | -28% | 5% | -0.2 | -1 | 1.6
COc1cccc(NC(=O)CN2C(=O)c3ccccc3Sc3ncccc32)c1
→ 0.1% | . | . | 0.1 | 2 | .
COc1ccc(-c2cc(-c3ccccc3)nc(N)n2)c(O)c1
→ -2.7% | -3% | -7% | 2.4 | -13 | .
COc1ccc(/C=N/N(c2ccccc2)c2ccccc2)cc1O
→ -1.5% | 27% | -7% | 1.3 | -15 | .
COCCCNC(=S)Nc1ccccc1C
→ 1.2% | 18% | 21% | 0.5 | -4 | .
O=C(Nc1ccc(F)cc1)N1CCN(c2ccccc2F)CC1
→ -10.0% | . | . | -0.2 | 15 | .
O=C1C2C3C=CC(C3=C3CCCCC3)C2C(=O)N1c1ccccc1 (stereo unspecified)
→ -1.0% | 1% | 6% | -1.3 | -5 | 2.4
CC(C)(C)N(CC#CCC(O)(c1ccccc1)c1ccccc1)CCO
→ 0.4% | 16% | 4% | 0.2 | -19 | 3.1
Cn1cc([N+](=O)[O-])c(C(=O)Nc2ccn(C34CC5CC(CC(C5)C3)C4)n2)n1
→ 1.1% | -38%[inhibitor] | -3% | 0.4 | 23 | 5.6
Cc1nnsc1C(=O)NNS(=O)(=O)c1cc(C(F)(F)F)cc(C(F)(F)F)c1
→ . | ? | 0% | -0.4 | -14 | -9.5
COC(=O)c1c(-c2ccc(C(C)(C)C)cc2)csc1NC(=O)C1C2CCC(O2)C1C(=O)O (stereo unspecified)
→ -1.8% | -42%[inhibitor] | -10% | -0.6 | -8 | .
COc1ccc(NC2CCCN(C(=O)c3cccnc3)C2)cc1 (stereo unspecified)
→ -0.8% | -11% | -6% | 0.0 | -8 | .
O=C(N/N=C1\CCCc2ccccc21)C(O)c1ccccc1 (stereo unspecified)
→ -0.9% | -12% | -1% | -0.1 | 7 | 1.7
Cc1cc(Br)ccc1NC(=O)CN(C)C(=O)c1cc(S(=O)(=O)N(C)C)ccc1N1CCCC1
→ -0.8% | 8%[15.4 µM] | -11% | -1.1 | 7 | .
Cc1ccnc(NC(=O)c2ccc(COc3ccc(Cl)cc3)o2)c1
→ -6.1% | -25% | -3% | 2.8 | 22 | 0.2
CCOc1ccccc1NC(=O)N1CCCC1C(=O)NCc1cccs1 (stereo unspecified)
→ . | 1% | 6% | -0.4 | -16 | -0.1
Nc1nc(-c2ccco2)nn1C(=O)CCc1ccccc1
→ -1.4% | -27% | 3%[15.4 µM] | 1.9 | -13 | 1.2
CC1CCCC(C)N1C(=O)COc1ccc(C(=O)N/N=C/c2ccc(C(=O)O)cc2)cc1 (stereo unspecified)
→ . | 24% | 9% | -0.7 | 30 | -3.2
COc1ccc(N(Cc2cccs2)C(=O)COc2cc(C)c(Cl)c(C)c2)cc1
→ 1.5% | . | . | 4.4 | 10 | .
CCCC(C(=O)N(C)CC(=O)Nc1ccc(N2CCOCC2)cc1)c1ccccc1 (stereo unspecified)
→ . | 0%[15.4 µM] | 0% | 0.5 | -1 | .
CC(C)NC(=O)c1ccc(S(=O)(=O)N(C)C)cc1
→ . | 2% | 11% | -0.4 | -2 | -2.1
Cc1cc(C)c(NC(=O)Cn2c(=O)n(Cc3ccc(C(=O)NCc4ccc5c(c4)OCO5)cc3)c(=O)c3ccccc32)c(C)c1
→ -1.1% | . | . | 0.0 | 21 | .
CC1=C(C(=O)NCc2cccc(Cl)c2)C2(CCCCCC2)OC1=O
→ -3.0% | . | . | 1.1 | 10 | .
O=C(O)CCC(=O)OCCN(Cc1ccc(Oc2ccc([N+](=O)[O-])cc2)cc1)C(=O)C(Cl)Cl
→ 1.2% | 16% | -34% | 2.0 | 5 | .
O=C(CCN1CCOCC1)Nc1ccc2c(c1)N(C(=O)CN1CCOCC1)c1ccccc1CC2
→ -0.4% | -29% | 2% | 0.4 | -8 | 0.1
CCOc1ccc(NC(=O)CN2CCN(c3ccc(Cl)cc3)CC2)cc1
→ 0.1% | . | . | -0.4 | -2 | .
Cc1nc2c(c(N3CCOCC3)n1)OCC(=O)N2
→ 0.6% | -22% | 9% | -0.1 | 5 | 1.8
Cc1ccc(C)c(-n2nnc(-c3nc(-c4ccccc4C)no3)c2C)c1
→ -1.3% | . | . | 0.6 | 84 | .
CSc1nc(N2CCOCC2)c2c3c(sc2n1)CCCC3
→ -4.3% | -4% | -20% | 1.0 | 5 | 2.0
Cc1ccc(NC(=O)c2cccc(NC(=O)N3CCSc4ncccc43)c2)cc1F
→ -13% | . | . | 0.8 | 17 | .

Record cards, as listed above. Order of screens: ClpP mod	gsp ag	gsp antag	TRPML1 agonist	TRPML1 inh	Menin-MLL FL inh
`Cc1cc(Br)ccc1NC(=O)CN(C)C(=O)c1cc(S(=O)(=O)N(C)C)ccc1N1CCCC1` reads -0.8%	8%[15.4 µM]	-11%	-1.1	7	.
`Cc1ccc(NC(=O)c2cccc(NC(=O)N3CCSc4ncccc43)c2)cc1F` reads -13%	.	.	0.8	17	.

Further compounds follow:
Order of results: ClpP mod | gsp ag | gsp antag | TRPML1 agonist | TRPML1 inh | Menin-MLL FL inh
COc1ccc(CN2C3CCCC2CC(NC(=O)Nc2ccccc2C)C3)cc1 (stereo unspecified)
→ -11% | 2% | 18% | 0.7 | 23 | 2.0
CN(C)S(=O)(=O)c1ccc2c(c1)N(CC(=O)N1CCC(C(N)=O)CC1)CCS2
→ 3.9% | . | . | 1.0 | 3 | .
N#Cc1ccc(CSc2nnc(-c3ccccn3)n2-c2ccccc2)cc1
→ -5.8% | -5% | -12% | -0.1 | -11 | 0.1
Cc1ccc(S(=O)(=O)N(C)C)cc1NC(=S)NNC(=O)C1CC1
→ -1.1% | 25%[15.4 µM] | 1% | -0.2 | -4 | -0.6
C=CCn1c(=O)c(C(=O)Nc2ccccc2C)c(O)c2ccccc21
→ -2.7% | -5%[15.4 µM] | -11% | 0.7 | 1 | -10
CN(C)C1=NCCN1CC1CCCCC1
→ 2.2% | 4% | 14% | -0.6 | -6 | .
CC1(C)C(=O)Nc2ccccc2N1C(=O)CSc1nc(-c2ccccc2)cs1
→ 3.4% | -8%[15.4 µM] | -14% | -0.6 | -24 | ?
CCOc1ccc2nc(SCc3ccc(OC)cc3)sc2c1
→ -2.0% | 0% | 3% | 2.5 | 5 | 1.7
Cc1cc(C(=O)NNC(=O)CCN2CCN(c3ccccc3)CC2)c2ccccc2n1
→ -1.8% | -18% | 5% | -0.1 | 8 | -3.2
CCOc1cccc(NC(=O)CSc2ncc(-c3ccc(Cl)cc3)[nH]2)c1
→ 0.0% | . | . | 2.8 | -3 | .
O=C(c1cccs1)N1CCCC1
→ 5.3% | -8% | 16% | 0.1 | 50 | 5.3
COc1ccc(N2CCN(C(=O)c3cc4c(=O)n(Cc5ccccc5)ccc4nc3C)CC2)cc1
→ -13%&-12% | 1% | 19% | 0.6&-0.3 | -12&0 | 0.0
COC(=O)[C@@]12CCCN1[C@H](c1ccc(-c3ccc(F)cc3)cc1)[C@H]1C(=O)N(C)C(=O)[C@H]12
→ -1.2% | 6% | 0% | -1.0 | 6 | .
CCOC(=O)c1cc(C)n(CC2CCC(C(=O)Nc3ccc(C)cc3)CC2)c1C (stereo unspecified)
→ 0.4% | . | . | -0.4 | 13 | .
COc1ccc(C(=O)NCC(=O)OCC(=O)Nc2sccc2C#N)cc1OC
→ 1.0% | 17% | 0% | -0.2 | 0 | 6.6
O=c1[nH]c2c(s1)C(c1ccco1)C1C3CCC(C3)C1S2 (stereo unspecified)
→ -18% | -58%[inhibitor] | -5% | 0.3 | 7 | ?
COc1cc(-c2nnn(Cc3ccccc3C)n2)cc(OC)c1OC
→ -0.4% | -4% | 5% | 2.8 | -8 | -1.1
COc1cc(OC)cc(-c2sc3ccc(OC)cc3c2C#CC(C)(C)O)c1
→ 5.0% | 20% | -2% | 2.0 | -10 | .
CNC(=O)NC(=O)C(C)OC(=O)c1ccc(Cl)c(S(=O)(=O)Nc2ccc(F)cc2)c1 (stereo unspecified)
→ . | -17%[15.4 µM] | -2% | -0.1 | -4 | 0.4
Cc1nn(C)c(C)c1CS(=O)(=O)c1ccccc1
→ . | -14%[15.4 µM] | 14% | -0.5 | 25 | 1.8
Cc1nn(CCCC(=O)Nc2cc(Oc3ccc(F)cc3)cc([N+](=O)[O-])c2)c(C)c1[N+](=O)[O-]
→ 6.3% | -7% | ? | -0.3 | 7 | 1.6
O=C(NCC1CCCO1)C1CC(c2ccc(Cl)c(Cl)c2)=NO1 (stereo unspecified)
→ 0.3% | 22% | -9% | -0.3 | -1 | 0.3
O=C(NCCN1C(=O)S/C(=C\c2ccc(F)cc2)C1=O)C1CCN(S(=O)(=O)c2cccs2)CC1
→ -2.0% | 9%[15.4 µM] | ? | 0.0 | -8 | 5.2
CCOc1ccccc1CNC(=O)C(CC)n1nc(C)c2c(C)n(-c3ccccc3)nc2c1=O (stereo unspecified)
→ -0.9% | . | . | -0.5 | -13 | .
O=C(Cn1cnc2ccccc2c1=O)N(Cc1ccco1)c1ccc(O)cc1
→ -4.4% | 11% | -4% | 0.0 | -2 | 0.6
COc1ccc(C(=O)Nc2ccc(C(=O)N3CCCCC3C)cc2)c(OC)c1OC (stereo unspecified)
→ -2.1% | 1% | 7% | 1.4 | -29 | .
CCn1c2ccccc2c2cc(NS(=O)(=O)c3ccc(C)cc3)ccc21
→ -3.3% | 7% | -5% | 0.4 | -7 | 1.3
CCOc1cc(N2CCOCC2)c(OCC)cc1NC(=O)c1cc(C)nc2ccccc12
→ -2.5% | -27%[15.4 µM] | 0% | 0.9 | 20 | 2.7
Cc1ccc(NC(=O)C2CCN(S(=O)(=O)c3cc(-c4noc(C)n4)ccc3C)CC2)c(C)c1
→ 1.6% | . | . | -0.2 | 3 | .
Cn1cccc1C(=O)NC(=O)COC(=O)c1cc([N+](=O)[O-])ccc1Cl
→ . | 8%[15.4 µM] | -29% | -0.1 | 32 | 2.0
O=C(C1CCN(CCCc2ccccc2)CC1)N1CCCCC1
→ -2.8% | -11% | 9% | -0.4 | 11 | -2.1
COC(=O)c1ccc(C(=O)OC)c(NC(=O)CN2CCCCC2)c1
→ . | -36%[inhibitor] | -2% | 0.4 | 15 | 0.8
CCOC(=O)C1(Cc2ccccc2C)CCCN(Cc2cn(C)nc2C)C1 (stereo unspecified)
→ -0.1% | ? | 5% | -0.5 | -13 | -2.2
O=C(Nc1ccc(S(=O)(=O)Nc2ncccn2)cc1)c1ccc(S(=O)(=O)N2CCCC2)cc1
→ . | ? | -6% | -0.1 | 21 | ?

From PubChem
